# VCAM-1 rise: enhancers of VCAM-1 display on endothelial cells, cell-based, plate reader, pooled HUVEC, TNFa stimulus (AID 455); augmentation, % at 5 µM; HUVEC TNFa-induced VCAM-1 immunofluorescence, plate reader; numbers were filed only for top-ranked candidate wells; 0.2% of 10,000 active;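 active = a compound raising TNF-alpha-driven VCAM-1 surface staining, with its hit status upheld on visual or statistical review; inactive = the rest, including hits rejected on review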;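 also: 0% = TNFa with vehicle and 100% = strongest image-checked hit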
# 26S disassembly: blocks ATP-dependent breakdown of the yeast 26S proteasome | inhibition of disassembly, % (no concentration beside the values) | AID 751 | anti-FLAG beads, GFP-proteasome disassembly, flow cytometry | 0.2% of 24,000 active;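 active = above 40%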;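 also: plate controls were ATP control with full disassembly for no effect and ATP-gamma-S intact proteasomes for full effect; higher percent means more bead fluorescence retained so stronger block of disassembly; stock transfer was 100 nL into about 10 µL; wells with too few beads may also be inconclusive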
# Active calls of the source: *; i = inactive; . = no result given. An excerpt; the hit share may differ from the screen's.
# Start of the data: the first 3 compounds, to show the layout:
SMILES,VCAM-1 rise,26S disassembly
COC(=O)C1=C(N)Oc2cc(C)[nH]c(=O)c2C1c1cc(OC)c(OC)c(OC)c1 (stereo unspecified),.,0.1
CCOC(=O)CN1CC23C=CC(O2)C(C(=O)Nc2ccc(OCC)cc2)C3C1=O (stereo unspecified),i,-0.8
CN1CCCN(CC(O)COCc2cccs2)CC1 (stereo unspecified),i,-1.7

# All compounds of this part, from the start:
SMILES,VCAM-1 rise,26S disassembly
COC(=O)C1=C(N)Oc2cc(C)[nH]c(=O)c2C1c1cc(OC)c(OC)c(OC)c1 (stereo unspecified),.,0.1
CCOC(=O)CN1CC23C=CC(O2)C(C(=O)Nc2ccc(OCC)cc2)C3C1=O (stereo unspecified),i,-0.8
CN1CCCN(CC(O)COCc2cccs2)CC1 (stereo unspecified),i,-1.7
CCCCCCNC(=O)CCNC(=O)c1cc(OC)c(OC)c(OC)c1,.,-0.6
CCCNC(=O)c1ccc(CNc2c(N3CCC(C(=O)OCC)CC3)c(=O)c2=O)cc1,.,-1.4
O=C(Nc1ccc(Cl)cc1F)C1CCN(S(=O)(=O)c2cccnc2)CC1,.,1.8
Cc1cc(NC(=O)c2ccccc2Oc2ccccc2)no1,i,-0.5
O=C1c2ccccc2C(Nc2ccc(S(=O)(=O)N3CCCCCC3)cc2)N1Cc1ccco1 (stereo unspecified),.,1.0
CNc1oc(C)nc1S(=O)(=O)c1ccc(C)cc1,.,-1.4
COCCN1Cc2cccc(C(=O)NCc3ccc4c(c3)OCO4)c2C1=O,.,-0.9
Cn1cccc1-c1nc2ccc(NC(=O)c3ccco3)cc2[nH]1,65,0.7
Clc1ccc(SCCCCn2ccnc2)cc1,i,0.1
COc1ccccc1N1CCN(C(CNS(=O)(=O)c2ccc(C)cc2)c2cccnc2)CC1 (stereo unspecified),.,5.2
Oc1ccc(-c2n[nH]c(=S)n2Cc2ccccc2)cc1,i,1.6
Cc1cc2nc(C)n(CCCNC(=O)Nc3ccc(C#N)cc3)c2cc1C,.,-0.2
CCOC(=O)[C@@H]1CCNC[C@@H]1c1ccccc1,.,0.1
Cc1cccc(C2CC(c3ccc(Br)cc3)Nc3nc(N)nn32)c1 (stereo unspecified),i,-1.0
CC(C)C(NS(=O)(=O)c1ccc2c(c1)oc(=O)n2C)C(=O)N1CCN(Cc2ccccc2)CC1 (stereo unspecified),.,-1.5
CCOc1ccc(NC(=O)CSc2nnc(Cc3cccn3C)n2-c2ccc(F)cc2)cc1,.,0.1
CS(=O)(=O)N1CCN(c2ccccc2NC(=O)c2cccs2)CC1,i,-1.4
COc1ccc(-c2cc(N3CCCC3)n3ncnc3n2)cc1,i,-0.2
CCC(C)(C(=O)NC1CCCC1)N(C(=O)c1ccccn1)c1ccccc1 (stereo unspecified),.,-1.9
CCOc1ccc(OCC)c(Nc2cc(C)nc3ncnn23)c1,.,2.5
CCOc1cc2[nH]c(=S)n(CC3CCCN3CC)c(=O)c2cc1OCC (stereo unspecified),.,3.8
COC(=O)c1cc(S(=O)(=O)N2CCOCC2)ccc1Sc1ccccc1N,.,-2.4
CCOC(=O)N1CCC(NC(=O)c2ccc(CS(=O)(=O)c3c(Cl)cccc3Cl)o2)CC1,i,-0.6
CCOC(=O)N1CCC(NC(=O)C2CCN(S(=O)(=O)N3CCCC3)CC2)CC1,.,-1.5
COc1ccccc1N1CCN(C(CNC(=O)c2ccc3c(c2)OCO3)c2cccnc2)CC1 (stereo unspecified),.,5.2
Cc1cccc2cc(COC(=O)C(C)(C)C)c(=O)[nH]c12,i,-2.8
CC(C)OC(=O)c1nnn(-c2nonc2N)c1CN1CCc2ccccc2C1,.,1.3
O=C(CN1C(=O)C2C3C=CC(C3)C2C1=O)Nc1cccc2c1CCCC2 (stereo unspecified),.,1.5
COc1ccccc1NC(=O)CSc1nnc(Cc2cccn2C)n1CCc1ccccc1,.,1.8
Cc1ccc(C)c(N2CCN(S(=O)(=O)c3ccc4[nH]c(=O)c(=O)[nH]c4c3)CC2)c1,.,0.8
CCOC(=O)N1CCN(C(=O)CCSCCc2ccncc2)CC1,.,-1.4
COc1ccc2c(c1)CCc1c(C(=O)Nc3ccn(Cc4ccc(C)cc4)n3)noc1-2,.,2.7
Cc1ccc(CCNC(=O)C2CCCN(S(=O)(=O)c3c(C)noc3/C=C/N(C)C)C2)cc1 (stereo unspecified),.,0.2
CCOC(=O)C1(CC)NC(c2cccc(F)c2)C2C(=O)N(CC)C(=O)C21 (stereo unspecified),i,-1.4
Cc1cc(=O)[nH]c2cc(Cl)ccc12,.,-0.8
CCOC(=O)CSc1nc2ccc(N3CCOCC3)cc2c(=O)n1Cc1ccc2c(c1)OCO2,.,-0.3
O=C1CC(C(=O)Nc2ccc(Br)cc2)C2(CCCC2)O1 (stereo unspecified),i,0.7

# Two records drawn at random from those above:
SMILES,VCAM-1 rise,26S disassembly
CCOC(=O)CSc1nc2ccc(N3CCOCC3)cc2c(=O)n1Cc1ccc2c(c1)OCO2,.,-0.3
CC(C)OC(=O)c1nnn(-c2nonc2N)c1CN1CCc2ccccc2C1,.,1.3

# Other entries
SMILES,VCAM-1 rise,26S disassembly
COC(=O)C1=C(C)NC(C)=C(C(=O)OC)C1C1CC=CCC1 (stereo unspecified),i,0.8
NC(=O)C1CCN(CCCNC2CC(=O)N(Cc3ccc(N4CCCC4=O)cc3)C2=O)CC1 (stereo unspecified),.,-3.3
CCOC(=O)c1sc2nc(SCC(=O)NCc3ccco3)n(Cc3ccccc3)c(=O)c2c1C,i,0.3
Cc1c(C(=O)NCc2cccnc2)oc2ccc(S(=O)(=O)N3CC(C)CC(C)C3)cc12 (stereo unspecified),.,-0.7
COc1ccc(-c2nnc(SCC(=O)NC(C)c3ccccc3)o2)cc1 (stereo unspecified),i,3.8
O=C1CC(=O)CC(c2ccco2)C1,.,-0.9
COc1ccc(Cl)cc1NC(=O)CN1C(=O)CCS(=O)(=O)c2ccccc21,.,-2.3
CN(CC(=O)N1CCN(c2ccc(F)cc2)CC1)S(=O)(=O)c1ccc(F)cc1,i,-4.2
Cn1c(=O)[nH]c(=O)c2[nH]c(NCCCN3CCOCC3)nc21,i,-0.1
COC(=O)Cn1nc(-c2ccccc2)n(-c2ccccc2)c1=S,.,0.4
CCOc1ccc(N(C(C)C(=O)NC2CCCCCC2)S(C)(=O)=O)cc1 (stereo unspecified),i,-1.2
Cc1nnc(SCC(=O)Nc2ccc3c(c2)OCCO3)n1CC1CCCO1 (stereo unspecified),i,-1.1
COc1ccc(CCn2c(-c3ccco3)nc3ccccc3c2=O)cc1OC,i,3.9
CN(CC(=O)NCCC1=CCCCC1)S(=O)(=O)c1ccc2c(c1)c(=O)n(C)c(=O)n2C,.,-2.9
Clc1ccc(Cn2ncc3c(NCc4cccnc4)ncnc32)cc1,i,-0.2
COc1ccc(CNC(=O)c2cc3c(=O)n4ccccc4nc3n(Cc3ccco3)c2=N)cc1,i,0.3
O=C(CCn1c(=O)c2sccc2n(CC(=O)OCc2ccccc2)c1=O)NCc1ccco1,.,2.9
O=C(O)C1CCN(C(=O)c2scc3c2OCCO3)CC1,.,0.2
COc1ccccc1N1CCN(Cc2nc(N)nc(Nc3ccc(C)c(Cl)c3)n2)CC1,i,0.6
Cc1c(NC(=O)CCc2ccc(S(=O)(=O)N3CCOCC3)cc2)c(=O)n(-c2ccccc2)n1C,i,-0.7
N#Cc1c(-c2ccc3c(c2)OCO3)csc1N,i,-0.7
CC(C)Cn1c(CN2CCN(c3ccccc3F)CC2)nc2c1c(=O)[nH]c(=O)n2C,i,0.3
Cc1ccc(Cl)cc1N1CCN(S(=O)(=O)c2cnc[nH]2)CC1,.,2.5
O=C(c1cccc(N2CCCC2=O)c1)N1CCN(c2ccccc2)CC1,.,-1.0
CCOc1ccc(S(=O)(=O)N2CCc3ccccc3C2)cc1,.,0.9
COc1ccccc1-n1c(CNC(=O)c2ccco2)nnc1SCC(=O)Nc1cc(C)ccc1C,.,1.1
CCOc1ccc(NC(=O)N(C2CCCCCC2)C2CCN(C(C)=O)CC2)cc1,.,-0.5
CCCN(Cc1cc2ccc(C)cc2[nH]c1=O)C(=O)c1cccnc1,i,4.2
Cc1ccc(Cn2nnc3c(=O)n(Cc4cccc(C)c4)cnc32)cc1,.,-0.2
CCOC(=O)Cc1nnc(Nc2cccc(O)c2)c2ccccc12,i,2.2
COC(=O)CN1C(=O)CC(C)(C)Sc2ccccc21,.,0.3
Cc1ccc(-c2nc(NC(=O)CSc3nnnn3-c3ccccc3)ns2)cc1,.,2.1
Cc1nc2ccccc2c2oc(C(=O)NCCN3CCCCC3C)cc12 (stereo unspecified),i,1.6
CCOc1cc2[nH]c(=S)n(CCCN3CCCC3=O)c(=O)c2cc1OCC,.,-0.7
O=C(c1ccccc1)c1cccn1CC(=O)N1CCCCCC1,.,0.4
COCCCNC(=O)CCN1C(=O)COc2ccccc21,.,0.3
COc1ccc(CN(C(=O)CSc2nnc(-c3ccccc3F)o2)c2ccc(F)cc2)cc1,i,6.3
COc1ccc(-c2nc3c(n2O)CCC/C3=N\O)cc1,i,-2.1
CC(=O)NCC(=O)NC(C(=O)Nc1ccc2c(c1)OCCO2)c1ccc(C)cc1 (stereo unspecified),.,-1.4
O=C1NC(c2cccnc2)C(C(=O)c2cccs2)C(O)(C(F)(F)F)N1 (stereo unspecified),i,-1.5
Cc1ccnc(NC(=O)C2CCCN(S(=O)(=O)c3cnc[nH]3)C2)c1 (stereo unspecified),i,0.2
Cc1cc(Nc2ccc(F)cc2Cl)n2nc(C)nc2n1,.,2.3
O=C(C1CCN(S(=O)(=O)c2ccc(Br)s2)CC1)N1CCc2ccccc21,.,0.3
Cc1ccnc(NC(=O)CCc2c(C)nc3ncnn3c2C)c1,.,0.4
COc1ccc(CN(C(=O)c2oc3ccccc3c2C)C2CCS(=O)(=O)C2)cc1 (stereo unspecified),i,-0.4
COc1cc(C)c(N)cc1C(C)C,i,0.8
CC(=O)Oc1ccc(CCC(C)OC(C)=O)cc1 (stereo unspecified),i,-1.7
CC1(C)OC(=O)C(=CNn2cnc3ccccc3c2=O)C(=O)O1,.,-1.7
CCN(CC)C(=O)c1ccc(O)c(OC)c1,i,-0.3
COc1ccc(Cl)cc1N(C)C(=O)CCNC(=O)Cn1cnc2ccccc2c1=O,.,-0.9
CCCN1C2=C(C(=O)CCC2)C(c2ccc(O)c(Br)c2)C2=C1CCCC2=O,i,7.7
CCOC(=O)c1[nH]c(C)c(C(=O)NC)c1C,i,1.0
COc1ccccc1C1c2c(oc3ccc(Cl)cc3c2=O)C(=O)N1c1cc(C)on1 (stereo unspecified),i,-3.2
Cn1c(Cn2c(=O)sc3ccccc32)nnc1SCc1ccc(F)cc1,.,-0.8
Cc1ccc(-c2nc(CS(=O)CC(=O)NCCN(CC(C)C)CC(C)C)c(C)o2)cc1 (stereo unspecified),i,1.8
c1ccc2c(c1)CC(N1CCCCC1)c1ccccc1N2 (stereo unspecified),i,1.1
COc1ccc(S(=O)(=O)Cc2ccc(C(=O)N3CCN(C(=O)c4ccco4)CC3)o2)cc1,.,0.1
COc1cccc(CNC(=O)C2CCN(S(=O)(=O)c3ccc4c(c3)CCC(=O)N4)CC2)c1,.,0.3
Cc1nn(C(=O)c2ccc3c(c2)OCO3)c(N)c1-c1ccccc1,i,-0.4
COCCn1c(C)cc(C(=O)COC(=O)CCN2C(=O)c3ccccc3C2=O)c1C,i,-0.6

# Next section.
SMILES,VCAM-1 rise,26S disassembly
O=C1c2ccccc2C(Nc2cccc(C(F)(F)F)c2)N1Cc1ccco1 (stereo unspecified),.,0.1
CCN(CC)c1nc(C#N)nc(N(CC)CC)n1,.,2.5
CCC(Sc1ncnc2c1nnn2-c1ccc(F)cc1)C(=O)OC (stereo unspecified),.,6.3
CCOC(=O)c1ccccc1NC1CC(=O)N(c2ccccc2C)C1=O (stereo unspecified),i,-5.3
COc1cc2[nH]c(=O)n(CCCCCC(=O)N3CCN(c4ccccn4)CC3)c(=O)c2cc1OC,i,-1.7
Cc1ccc2c(c1)NC(=O)C(CC(=O)Nc1ccc(CN3CCC(C)CC3)cc1)O2 (stereo unspecified),.,3.3
COc1ccc(C)cc1NC(=O)CN(C)S(=O)(=O)c1cccs1,.,1.0
CCOc1ccc(-n2c(SCC(=O)NCc3ccco3)nc3c([nH]c4ccccc43)c2=O)cc1,.,0.7
Cc1noc(C)c1CSc1nnc2scc(-c3ccccc3)n12,.,0.0
COc1ccccc1N1CCN(CC(=O)Nc2ccc(C)c(F)c2)CC1,.,1.4
COc1ccc(NC(=O)Nc2ccccc2C)c(OC)c1,i,4.9
CCCNCC(O)COc1ccccc1C(=O)CCc1ccccc1 (stereo unspecified),i,0.0
Nc1ncnc2oc(-c3ccco3)c(-c3ccco3)c12,i,0.8
CC(=O)OC(Cn1ccnc1)c1ccccc1 (stereo unspecified),.,0.0
CN1CCN(CCCN2c3ccccc3Sc3ccc(Cl)cc32)CC1,i,0.2
COC(=O)C(C)Sc1nnc(Cc2cc(=O)[nH]c(=O)[nH]2)n1-c1ccc(OC)cc1 (stereo unspecified),.,-0.5
CC1CC(C)CN(CCCNC(=O)CC2Oc3ccccc3NC2=O)C1 (stereo unspecified),.,-0.5

# 6 successive compounds from above, quoted:
SMILES,VCAM-1 rise,26S disassembly
O=C1c2ccccc2C(Nc2cccc(C(F)(F)F)c2)N1Cc1ccco1 (stereo unspecified),.,0.1
CCN(CC)c1nc(C#N)nc(N(CC)CC)n1,.,2.5
CCC(Sc1ncnc2c1nnn2-c1ccc(F)cc1)C(=O)OC (stereo unspecified),.,6.3
CCOC(=O)c1ccccc1NC1CC(=O)N(c2ccccc2C)C1=O (stereo unspecified),i,-5.3
COc1cc2[nH]c(=O)n(CCCCCC(=O)N3CCN(c4ccccn4)CC3)c(=O)c2cc1OC,i,-1.7
Cc1ccc2c(c1)NC(=O)C(CC(=O)Nc1ccc(CN3CCC(C)CC3)cc1)O2 (stereo unspecified),.,3.3

# High-throughput results as filed in PubChem.
